Compound activity as filed in PubChem BioAssay.
RE007 growth inh: less growth of the S. pombe RE007 Vpr strain | Potency, µM (titrated, usually from 92.2 µM), for the others: top-dose activity change, negative = less growth | S. pombe RE007 Vpr strain, BacTiter-Glo ATP luminescence, 24 h; control for the full effect not named in the record | 0.21% of 360,000 active | AID 651644; active = well fitted falling curve with a large enough effect; inconclusive = small, poorly fitted or top-dose-only effect; inactive = no such curve, though single readings can be large or run the other way;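 further: on the % scale 0 is the no-effect control and ±100 the full control effect; nearly all actives have a fitted effect of over 50% in size; the assay follows cell death caused by Vpr and the record does not say whether a fall means rescue or toxicity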
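Fission yeast strain RE007, carrying one chromosomally integrated HIV-1 vpr copy, was seeded at OD 0.01 in PMG+AL medium with 23 nL pinned compound. After 24 h at 30 °C and 99% humidity, viability was read by BacTiter-Glo luminescence.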
MARV entry inh: Marburg virus entry inhibition. AID 540276. 1.8% of 300,000 active. Potency, µM (highest dose often 37.8 µM), for inactives: at the highest dose activity change, negative = inhibition, hits mostly inhibitors. Marburg virus pseudotyped entry inhibition, cell reporter; control for the full effect not named in the record; about a third of the inactives were read at about 46 µM; active = well fitted inhibition curve with a large enough effect; inconclusive = small, poorly fitted or top-dose-only effect, or effect the other way; inactive = flat fitted curve, though single readings scatter; tested in HEK293 cells; about a fifth of its hits are not listed in these tables; further: on the % scale 0 is the no-effect control and ±100 the full control effect; luciferase read-out
SARS PLP yeast: blocks SARS-CoV papain-like protease in a yeast assay; 0.19% of 330,000 active; Potency, µM (series often up to 32.9 µM), for inactives: top-dose activity, positive = growth rescue; S. cerevisiae expressing SARS-CoV PLpro, growth rescue; control for the full effect not named in the record; active means well fitted rising curve with a large enough effect; inconclusive means small, poorly fitted or top-dose-only effect; inactive means no such curve, though single readings can be large or run the other way; further: 0% is about no effect; nearly all actives have a fitted effect of over 55% in size; growth read by luminescence after 48 h
Cruzain noTriton: blocks cruzain activity in detergent-free assay | purified cruzain, Z-FR-AMC fluorescence, no detergent | Potency, µM, for inactives: max response, negative = inhibition, actives largely listed as inhibitors | 2.3% of 200,000 active | AID 1476;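 further: plate controls were enzyme without inhibitor for no effect and buffer without enzyme for full effect; nearly all actives have a fitted effect of over 40% in size; top concentration of the series not given in the record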
Target sequence (P25779 123-467 limits assumed): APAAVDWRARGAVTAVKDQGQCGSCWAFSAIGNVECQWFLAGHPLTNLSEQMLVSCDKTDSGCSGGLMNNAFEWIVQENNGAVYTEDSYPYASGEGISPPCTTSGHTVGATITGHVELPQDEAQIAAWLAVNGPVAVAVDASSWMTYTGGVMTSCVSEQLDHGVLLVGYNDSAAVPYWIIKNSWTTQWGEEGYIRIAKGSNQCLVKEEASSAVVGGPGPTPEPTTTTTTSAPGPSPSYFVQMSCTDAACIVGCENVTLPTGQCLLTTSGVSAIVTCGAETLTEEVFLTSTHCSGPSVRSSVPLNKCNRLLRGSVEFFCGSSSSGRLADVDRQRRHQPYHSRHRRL
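Purified cruzain at 1.5 nM, pre-incubated 15 min with compound at room temperature in 100 mM sodium acetate pH 5.5, 5 mM DTT, 0.00005% Triton X-100. Reaction started with 2 uM Z-FR-AMC; AMC fluorescence increase over 60 s gives rate.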
NS1 function inh: blocks influenza NS1 protein function. AID 2326. S. cerevisiae slowed by influenza A NS1, growth recovery by OD600. Potency, µM (series often up to 46.1 µM), without a hit: at the highest dose activity, positive = more growth. 0.4% of 270,000 active; active means well fitted rising curve with a large enough effect; inconclusive means small, poorly fitted or top-dose-only effect; inactive means no such curve, though single readings can be large or run the other way; further: nearly all actives have a fitted effect of over 50% in size
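Recovery from NS1-induced slow growth read by OD600 in budding yeast switched to galactose assay medium (pH 6.0, -URA) at 1:100 dilution. Compound 23 nl per well; the matching strain lacking NS1 serves as control.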
Cruzain Triton: blocks cruzain activity in presence of Triton detergent | P25779 | purified cruzain, Z-FR-AMC fluorescence, 0.01% Triton | Potency, µM, for inactives: max response, negative = inhibition, most hits filed as inhibitors | 0.43% of 200,000 active | AID 1478;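 further: plate controls were neutral wells for no effect and buffer without enzyme for full effect; nearly all actives have a fitted effect of over 40% in size; top concentration of the series not given in the record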
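Enzyme 1.5 nM, Z-FR-AMC 2 uM, NaOAc 100 mM pH 5.5, DTT 5 mM, Triton X-100 0.01%; 15 min RT compound preincubation; kinetic ex360/em450, 60 s delta.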
LASV entry inh: blocks Lassa virus binding to or entry into cells; Potency, µM (series often up to 37.9 µM), inactives show at the top dose activity change, negative = inhibition, actives largely listed as inhibitors; Lassa virus pseudotype entry inhibition, cell reporter; control for the full effect not named in the record; AID 540256; 1.2% of 300,000 active; active means well fitted inhibition curve with a large enough effect; inconclusive means small, poorly fitted or top-dose-only effect, or effect the other way; inactive means flat fitted curve, though single readings scatter; tested in HEK293 cells; further: on the % scale 0 is the no-effect control and ±100 the full control effect; nearly all actives have a fitted effect of over 50% in size; luciferase read-out
2A StopGo: lowers the luciferase signal of an FMDV 2A StopGo reporter. human cells with a luciferase reporter of 2A StopGo recoding; control for the full effect not named in the record. Potency, µM (top dose mostly 57.9 µM), inactives show top-dose signal change, negative = less light. 1.2% of 410,000 active. AID 1159524; active = well fitted falling curve with a large enough effect; inconclusive = small, poorly fitted or top-dose-only effect; inactive = no such curve, though single readings can be large or run the other way; tested in HEK293T cells; further: on the % scale 0 is the no-effect control and ±100 the full control effect; nearly all actives have a fitted effect of over 45% in size; luciferase light after 4 h
Starred values were filed as active, the others as inactive; ? = inconclusive; · = no result given; & = joins results of further samples; [ ] = another dose, or the depositor's remark. Unless noted, the call rests on the fitted dose curve; in most records, active means well fitted curve in the direction sought with a large enough effect; inconclusive means small, poorly fitted or top-dose-only effect, or another doubt; inactive means no such curve, though single readings can be large; an effect the other way counts as inactive or inconclusive. Potency means the concentration at half of the fitted maximal effect.

SMILES	RE007 growth inh	MARV entry inh	SARS PLP yeast	Cruzain noTriton	NS1 function inh	Cruzain Triton	LASV entry inh	2A StopGo
CCc1nnc(NC(=O)CSc2nnc(-c3ccccc3OC)n2-c2ccc(C)cc2)s1	20%	-14%[46.1 µM]	-8%	4%	1%	-5.2%	-26%	-3%
COCCNC(=O)c1c(CSc2ccc(F)cc2)noc1C(=O)NCc1ccccc1	-2%	·	4%	-1%	-4%	-1.5%	·	-19%
COC(=O)/C(=C1/Oc2cc3c(cc2S1)OCO3)C(F)(F)F	1%	?	-5%	-26%	6%	4.8%	11%	·
CC(=O)Nc1ccc(S(=O)(=O)Oc2ccc(C(=S)N3CCC(O)CC3)cc2)cc1	-3%	?	-15%	-2%	?	-4.7%	4%	?
COc1ccc(C2=NN(C(=O)c3cccs3)C(O)(C(F)(F)F)C2)cc1 (stereo not given)	5%	?	-2%	·	·	·	?	-6%
COc1ccc(NC(=O)Cn2cnc3c(cnn3C(C)(C)C)c2=O)cc1OC	-12%	13%[46.1 µM]	3%	·	·	·	0%	?
Cc1cc2ccccc2n2c(SCC(=O)NCc3cccs3)nnc12	6%	8%	-2%	6%	-1%	1.0%	?	·
C=CCc1ccc(OCCOCCN(C)C)c(OC)c1	-12%	-1%	1%	-1%	-1%	3.2%	-1%	-9%
CN(CC(=O)Nc1cccc(F)c1)C(=O)/C=C/c1cn(Cc2ccccc2)nc1-c1cccnc1	2%	?	-1%	·	·	·	?	0%
Cc1ccc(C)n1-c1ccccc1N	·	·	-12%	0%	6%	-2.2%	·	·
Cc1ccc(NS(=O)(=O)c2cccc(C(=O)NCc3ccccn3)c2)cc1	?	-14%	4%	·	·	·	18%	6%
O=C(COC(=O)c1cccc(S(=O)(=O)N2CCOCC2)c1)Nc1nc(-c2ccccc2Cl)cs1	7%	2%[46.1 µM]	0%	?	11µM*	-2.1%	15%	-14%
Cc1cc(NC(=O)c2oc3c(c2C)-c2[nH]ncc2CC3)ccc1Br	·	?	·	-24%	·	-6.3%	5%[46.1 µM]	5%
CC(C)C[C@H](NC(=O)C1CC(=O)N(c2ccc3c(c2)OCO3)C1)C(=O)NC1CCCCC1 (stereo not given in full)	8%	·	-3%	·	-1%	·	·	12%
O=C(NC1CCCCC1)c1ccc2c(c1)N(Cc1ccc(Cl)cc1)C(=O)c1ccccc1S2=O (stereo not given)	·	?	·	-21%	·	1.7%	-15%[46.1 µM]	-11%
Cc1ccc(CSC2=NCCN2C(=O)c2ccco2)cc1	-2%	30%	-8%	-5%	-84%	-1.1%	3%	3%
C[C@@H](C(=O)OCC(=O)NCCc1ccc(S(N)(=O)=O)cc1)N1C(=O)C2CCCCC2C1=O (stereo not given in full)	15%	·	2%	·	1%	·	·	-3%
CCC(NC(=O)Nc1cc(C)on1)(C(F)(F)F)C(F)(F)F	-12%	·	0%	·	2%	·	·	-15%
O=[N+]([O-])c1ccc(N2CCN(S(=O)(=O)c3ccccc3)CC2)cc1NCCN1CCOCC1	7%	-1%	0%	8%	6%	-4.0%	-25%	?
COC(=O)c1ccc(NC(=O)c2ccc(OC(C)=O)c(OC)c2)cc1	10%	1%[46.1 µM]	-1%	·	-2%	·	10%[46.1 µM]	-2%
O=C(CSc1nnc(-c2ccncc2)n1Cc1ccco1)Nc1ccccc1Cl	2%	5%	0%	13%	3%	1.9%	2%	-8%
O=C(C[n+]1ccc2ccccc2c1)c1ccc2ccc3ccccc3c2c1	-26%	·	·	3.2µM*	?	-2.8%	·	-7%
O=c1[nH]c2cc(Cl)c(Br)cc2o1	-13%	17%	·	·	·	·	18%	-23%
O=C(COc1ccc2c(c1)CCC2)N1CCN(c2ccc(F)cc2)CC1	-17%	10%	2%	·	9%	·	2%	-20%
CCOC(=O)c1ccc(NC(=O)c2sc3ccccc3c2Cl)cc1	·	·	·	8%	·	-1.4%	23%[46.1 µM]	37%[activator]
SMILES	RE007 growth inh	MARV entry inh	SARS PLP yeast	Cruzain noTriton	NS1 function inh	Cruzain Triton	LASV entry inh	2A StopGo
CCOC(=O)c1c(C)[nH]c(C(=O)OCC(=O)c2ccccc2)c1C	-21%	?	4%	·	·	·	?	19%
O=C(C1CCC(=O)N(C2CC2)C1)N1CCN(c2cccc(Cl)c2)CC1 (stereo not given)	9%	-14%	4%	·	8%	·	0%	-18%
Cc1ccc(NC(=S)Nc2ccc3[nH]c(=O)[nH]c3c2)cc1C	1%	-10%[46.1 µM]	1%	·	-6%	·	-16%[46.1 µM]	-5%
COc1cc(/C=C/c2[nH]c(=O)[nH]c(=O)c2[N+](=O)[O-])cc(OC)c1O	8%	·	-7%	·	-10%	·	·	-2%
O=C1Nc2c(c(=O)[nH]c(=O)n2Cc2ccccc2)C1(NS(=O)(=O)c1ccccc1)C(F)(F)F (stereo not given)	1%	?	1%	·	0%	·	-2%[46.1 µM]	-24%
COc1ccccc1C(=O)Nc1ccc2c(c1)C(=O)NC2=O	3%	·	5%	·	1%	·	·	22%
O=C(CCNC(=O)c1ccc(Cl)cc1)NCc1ccco1	-7%	1%	-1%	·	·	·	1%	-8%
Cc1cccc(CNC(=O)CCCn2nc(C)c3c(C)n(-c4ccccc4)nc3c2=O)c1	-6%	·	3%	·	13%	·	·	0%
COc1cc(OC)cc(C(=O)Nc2ccc(N3CCN(C(=O)c4cccs4)CC3)cc2)c1	4%	-25%	27%	·	1%	·	?	?
COc1ccc(N2C(=O)Cc3cc(OC)c(OC)cc3C2c2ccc(F)cc2)cc1 (stereo not given)	·	-19%[46.1 µM]	·	?	·	-5.3%	-22%[46.1 µM]	0%
CCOc1ncccc1C(=O)Nc1cccc(Cl)c1Cl	-8%	?	0%	·	-4%	·	0%	-14%
O=C(CCC1CCCN(C(=O)c2cccc(F)c2)C1)N1CCN(c2ccccn2)CC1 (stereo not given)	2%	-27%	4%	·	-2%	·	-5%	?
CC1(C)NC(=O)N(CCOc2cccc(Cl)c2Cl)C1=O	-5%	16%	7%	1%	1%	0.7%	13%	?
O=C(N/N=C/c1ccc(N2CCCCC2)o1)C(O)(c1ccccc1)c1ccccc1	·	-25%	6%	7%	26%	-3.3%	-12%	·
CCOC(=O)N1CCN(C(=O)c2cn(-c3ccc(C)c(C)c3)c(=O)c3ccccc23)CC1	15%	13%&13%	1%	2%	-5%	1.0%	-14%	-24%
Cc1ncc(C23CC4CC(CC(C4)C2)C3)[nH]1	-12%	1%	13µM*	-6%	-2%	1.9%	·	-18%
NS(=O)(=O)c1cccc(NC(=O)CSc2ncc(C(F)(F)F)cc2Cl)c1	0%	?	8%	-7%	?	-11%	?	-26%
CCCc1c(C)[nH]c2nc3ccccc3n2c1=O	0%	24%	-11%	·	-31%	·	?	35%[activator]
Cc1ccc([N+](=O)[O-])cc1NC(=O)C(C)Sc1nnc(C)n1CC1CCCO1 (stereo not given)	-19%	3%[46.1 µM]	12%	·	8%	·	-13%	12%
COc1ccc(-c2nn(-c3ccccc3)cc2/C=C(\CC(=O)O)c2nc3ccccc3s2)cc1OC	6%	?	-5%	·	5%	·	?	-7%
CCOC(=O)Cn1c(=O)oc2cc(S(=O)(=O)NCc3ccccn3)ccc21	7%	·	2%	-15%	5%	5.6%	·	3%
CCC(C)NS(=O)(=O)c1ccc(NS(C)(=O)=O)cc1 (stereo not given)	-2%	2%	1%	-6%	-7%	1.4%	-15%	0%
O=C(NCc1ccco1)C(c1cccs1)N(Cc1ccccc1)C(=O)Cn1nnc2ccccc21 (stereo not given)	1%	-13%&-13%	-9%	-10%	-8%	-4.9%	-15%	-2%
COc1ccc(C2(SCC(N)C(=O)O)c3ccccc3-c3ccccc32)cc1 (stereo not given)	9%	-5%	·	·	·	·	7%[46.1 µM]	-19%
Cn1c(SCCOc2ccc(F)cc2)nnc1-c1ccncc1	-4%	·	-6%	·	-4%	·	·	26%
SMILES	RE007 growth inh	MARV entry inh	SARS PLP yeast	Cruzain noTriton	NS1 function inh	Cruzain Triton	LASV entry inh	2A StopGo
CCOC(=O)c1sc(N)c(C(=O)OC)c1C	-10%	16%[46.1 µM]	-3%	·	-11%	·	6%	67%[activator]
Cc1ccc(S(=O)(=O)CCC(=O)OCC(=O)N(Cc2ccccc2)C(C)C)cc1	29%	13%	-2%	·	·	·	-2%[46.1 µM]	3%
Cc1cc(Oc2ccc(OCC(N)=O)nn2)nc(Cl)n1	5%	3%[46.1 µM]	4%	·	·	·	-1%[46.1 µM]	33%[activator]
CCOC(=O)c1cnn(CCOC(=O)c2ccccc2)c1NC(=O)c1ccccc1	-3%	-6%	24%	3%	3%	-2.7%	-5%	0%
O=C(CSCCOc1ccccc1)NCc1ccncc1	-3%	11%	1%	·	-2%	·	22%	-2%
O=C(CSc1ccc(-c2cccs2)nn1)Nc1ccccc1C(F)(F)F	·	·	·	-10%	·	-8.2%	2%[46.1 µM]	-6%
CCOc1ccccc1CN1CCN(Cc2ccc3cc(F)ccc3n2)CC1CCO (stereo not given)	5%	·	0%	·	-3%	·	·	-14%
O=C(NCCc1ccc(Cl)cc1)c1nnc(Cc2ccc(F)cc2)o1	·	-15%[46.1 µM]	·	-9%	·	-0.2%	9%[46.1 µM]	-3%

Profiles, looked up by structure. Order of screens: RE007 growth inh, MARV entry inh, SARS PLP yeast, Cruzain noTriton, NS1 function inh, Cruzain Triton, LASV entry inh, 2A StopGo
Listed for Cc1ccc(S(=O)(=O)CCC(=O)OCC(=O)N(Cc2ccccc2)C(C)C)cc1 = 29%, 13%, -2%, ·, ·, ·, -2%[46.1 µM], 3%
Listed for O=C(CSc1ccc(-c2cccs2)nn1)Nc1ccccc1C(F)(F)F = ·, ·, ·, -10%, ·, -8.2%, 2%[46.1 µM], -6%
Listed for CCOc1ccccc1CN1CCN(Cc2ccc3cc(F)ccc3n2)CC1CCO (stereo not given) = 5%, ·, 0%, ·, -3%, ·, ·, -14%
Listed for O=C(NCCc1ccc(Cl)cc1)c1nnc(Cc2ccc(F)cc2)o1 = ·, -15%[46.1 µM], ·, -9%, ·, -0.2%, 9%[46.1 µM], -3%
Listed for O=C(CSCCOc1ccccc1)NCc1ccncc1 = -3%, 11%, 1%, ·, -2%, ·, 22%, -2%
